SARS PLP yeast: inhibitors of SARS-CoV papain-like protease in yeast; Potency, µM (top dose mostly 32.9 µM), inactives show at the highest dose activity, positive = growth rescue; 0.19% of 330,000 active; S. cerevisiae expressing SARS-CoV PLpro, growth rescue; control for the full effect not named in the record; active means well fitted rising curve with a large enough effect; inconclusive means small, poorly fitted or top-dose-only effect; inactive means no such curve, though single readings can be large or run the other way; note: 0% is about no effect; nearly all actives have a fitted effect of over 55% in size; growth read by luminescence after 48 h
2A StopGo: lowers the luciferase signal of an FMDV 2A StopGo reporter; human cells with a luciferase reporter of 2A StopGo recoding; control for the full effect not named in the record; Potency, µM (doses to about 57.9 µM), for the others: at the highest dose signal change, negative = less light; 1.2% of 410,000 active; AID 1159524; active = well fitted falling curve with a large enough effect; inconclusive = small, poorly fitted or top-dose-only effect; inactive = no such curve, though single readings can be large or run the other way; tested in HEK293T cells; note: % is set by controls: 0 for no effect and ±100 for the full control effect; nearly all actives have a fitted effect of over 45% in size; luciferase light after 4 h
MARV entry inh: Marburg virus entry inhibition; Marburg virus pseudotyped entry inhibition, cell reporter; control for the full effect not named in the record; about a third of the inactives were read at about 46 µM; Potency, µM (series often up to 37.8 µM), inactives show at the highest dose activity change, negative = inhibition, hits mostly inhibitors; 1.8% of 300,000 active; AID 540276; active = well fitted inhibition curve with a large enough effect; inconclusive = small, poorly fitted or top-dose-only effect, or effect the other way; inactive = flat fitted curve, though single readings scatter; tested in HEK293 cells; about a fifth of its hits are not listed in these tables; note: % is set by controls: 0 for no effect and ±100 for the full control effect; luciferase read-out
NS1 inh: blocks influenza NS1 protein function; S. cerevisiae slowed by influenza A NS1, growth recovery by OD600; Potency, µM (titrated, usually from 46.1 µM), without a hit: top-dose activity, positive = more growth; 0.4% of 270,000 active; AID 2326; active means well fitted rising curve with a large enough effect; inconclusive means small, poorly fitted or top-dose-only effect; inactive means no such curve, though single readings can be large or run the other way; note: nearly all actives have a fitted effect of over 50% in size
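OD600 was taken as the measure of yeast growth restored by compound in an NS1-expressing S. cerevisiae strain. Cells had been washed out of glucose medium and diluted 1:100 into galactose -URA medium, pH 6.0.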
LASV entry inh: blocks Lassa virus binding to or entry into cells | Potency, µM (highest dose often 37.9 µM), without a hit: at the highest dose activity change, negative = inhibition, most hits filed as inhibitors | Lassa virus pseudotype entry inhibition, cell reporter; control for the full effect not named in the record | 1.2% of 300,000 active | AID 540256; active means well fitted inhibition curve with a large enough effect; inconclusive means small, poorly fitted or top-dose-only effect, or effect the other way; inactive means flat fitted curve, though single readings scatter; tested in HEK293 cells; note: % is set by controls: 0 for no effect and ±100 for the full control effect; nearly all actives have a fitted effect of over 50% in size; luciferase read-out
Cruzain inh noDet: inhibitors of Trypanosoma cruzi cruzain without detergent; 2.3% of 200,000 active; P25779; purified cruzain, Z-FR-AMC fluorescence, no detergent; Potency, µM, for inactives: max response, negative = inhibition, actives largely listed as inhibitors;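 note: plate controls were enzyme without inhibitor for no effect and buffer without enzyme for full effect; nearly all actives have a fitted effect of over 40% in size; top concentration of the series not given in the record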
Target sequence (P25779 123-467 limits assumed): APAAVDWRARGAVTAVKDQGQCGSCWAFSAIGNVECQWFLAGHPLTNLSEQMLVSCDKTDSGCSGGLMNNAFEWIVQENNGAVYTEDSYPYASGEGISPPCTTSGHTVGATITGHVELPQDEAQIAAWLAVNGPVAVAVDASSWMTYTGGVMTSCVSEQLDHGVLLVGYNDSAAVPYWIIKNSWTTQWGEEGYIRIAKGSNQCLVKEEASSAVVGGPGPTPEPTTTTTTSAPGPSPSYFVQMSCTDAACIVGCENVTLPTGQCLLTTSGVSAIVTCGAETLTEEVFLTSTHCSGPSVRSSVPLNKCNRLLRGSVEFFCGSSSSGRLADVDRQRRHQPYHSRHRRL
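Detergent-free condition (0.00005% Triton X-100) in acetate buffer pH 5.5 with DTT. 1.5 nM enzyme and compound were pre-mixed 15 min, then 2 uM Z-FR-AMC substrate added; reaction progress from fluorescence change between first and third reads (60 s).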
Cruzain Triton: cruzain (T. cruzi) inhibition with detergent; purified cruzain, Z-FR-AMC fluorescence, 0.01% Triton; 0.43% of 200,000 active; Potency, µM, inactives show max response, negative = inhibition, most hits filed as inhibitors;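 note: plate controls were neutral wells for no effect and buffer without enzyme for full effect; nearly all actives have a fitted effect of over 40% in size; top concentration of the series not given in the record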
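Cysteine protease activity tested under reducing, mildly acidic conditions (100 mM sodium acetate pH 5.5, 5 mM DTT) plus 0.01% Triton X-100. Cruzain 1.5 nM; substrate Z-FR-AMC 2 uM; 15 min compound preincubation at room temperature.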
RE007 growth inh: less growth of the S. pombe RE007 Vpr strain. S. pombe RE007 Vpr strain, BacTiter-Glo ATP luminescence, 24 h; control for the full effect not named in the record. Potency, µM (titrated, usually from 92.2 µM), for inactives: at the highest dose activity change, negative = less growth. 0.21% of 360,000 active; active = well fitted falling curve with a large enough effect; inconclusive = small, poorly fitted or top-dose-only effect; inactive = no such curve, though single readings can be large or run the other way;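 note: % is set by controls: 0 for no effect and ±100 for the full control effect; nearly all actives have a fitted effect of over 50% in size; the assay follows cell death caused by Vpr and the record does not say whether a fall means rescue or toxicity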
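Fission yeast RE007 carrying one integrated HIV-1 vpr copy, seeded at OD 0.01 in PMG+AL medium with 23 nL pinned compound. Grown 24 h at 30 degrees; viability read by BacTiter-Glo luminescence after 5 min.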
Starred values were filed as active, the others as inactive; & = joins results of further samples; [ ] = dose if it differs, or a comment. Unless noted, calls come from the whole dose curve; as a rule, active = well fitted curve in the direction sought with a large enough effect; inconclusive = small, poorly fitted or top-dose-only effect, or another doubt; inactive = no such curve, though single readings can be large; an effect the other way counts as inactive or inconclusive. Potency is the fitted concentration of half-maximal effect. Outcome played no part in choosing rows (roughly 4.7% active in at least one column).

CCNC(=O)/C(C#N)=C/c1c(N2CCOCC2)nc2ccccn2c1=O was read as SARS PLP yeast 5.1%, 2A StopGo 1.6%, MARV entry inh inconclusive, NS1 inh 5.7%, LASV entry inh 3.2%, Cruzain inh noDet -1.2%, Cruzain Triton -5.3% and RE007 growth inh 6.2%.
`CNc1oc(Cc2cccc3ccccc23)nc1C#N` gave SARS PLP yeast 1.0%, 2A StopGo -9.7%, MARV entry inh -11.5%, NS1 inh -49.3%, LASV entry inh -0.9%, Cruzain inh noDet -0.8%, Cruzain Triton -2.8% and RE007 growth inh 13.1%.
CN1CCN(c2nc(-c3ccccc3)nc3c2oc2ccccc23)CC1 was read as SARS PLP yeast -1.8%, 2A StopGo -18.4%, MARV entry inh 7.7%, NS1 inh -50.5%, LASV entry inh 11.6%, Cruzain inh noDet 13.5%, Cruzain Triton -1.2% and RE007 growth inh 32.5%.
Screening O=C(COc1ccccc1[N+](=O)[O-])N1CCN(c2ccccn2)CC1 returned SARS PLP yeast -1.3%, 2A StopGo -8.8%, MARV entry inh inconclusive, LASV entry inh 2.7% and RE007 growth inh -13.3%.
Screening CCOc1ccc(C(=O)CC(=O)C(=O)NCCc2ccc(OC)c(OC)c2)cc1 returned SARS PLP yeast 20µM*, 2A StopGo 3.5%, MARV entry inh -40.7%, NS1 inh 19.9%, LASV entry inh -11.4%, Cruzain inh noDet inconclusive, Cruzain Triton -10.5% and RE007 growth inh 0.0%.
Screening CC(C)[C@H](NC(=O)N1CC(=O)Nc2ccccc21)C(=O)N[C@H](Cc1c[nH]c2ccccc12)C(=O)O returned SARS PLP yeast 11.5%, 2A StopGo -11.6%, NS1 inh 8.2% and RE007 growth inh 4.5%.
For Cc1nc(C)c(NC(=O)N2CCc3ccccc32)cc1NC(=O)N1CCc2ccccc21 the results were SARS PLP yeast 2.3%, 2A StopGo -21.1%, MARV entry inh -17.6%[46.1 µM], NS1 inh 3.2%, LASV entry inh 3.9%, Cruzain inh noDet inconclusive, Cruzain Triton -5.7% and RE007 growth inh 0.7%.
`CSc1ccccc1C(=O)N1CCCC(CCC(=O)NCc2ccc(F)c(F)c2)C1` (stereo unspecified) gave SARS PLP yeast -2.1%, 2A StopGo 2.9%, MARV entry inh inconclusive, NS1 inh -22.1%, LASV entry inh -6.4% and RE007 growth inh -2.1%.
For C=C(C)C(=O)N1CC2(CC(c3cccc(NC(=O)/C=C\C=C/C)c3)=NO2)C[C@H]1C(N)=O (stereo partly specified) the results were SARS PLP yeast -0.2%, 2A StopGo 11.1%, NS1 inh -2.1% and RE007 growth inh 0.1%.
For COc1ccc(/C=C2\C(=O)ON=C2c2ccccc2)cc1 the results were SARS PLP yeast 1.8%, 2A StopGo 35.5µM*, MARV entry inh inconclusive, NS1 inh 1.6%, LASV entry inh 22.5%[46.1 µM] and RE007 growth inh inconclusive.
Screening Cc1ccc(CC(=O)Nc2ccc(F)c([N+](=O)[O-])c2)cc1C returned SARS PLP yeast 0.1%, 2A StopGo 17.1%, MARV entry inh -4.6%, LASV entry inh -2.2% and RE007 growth inh -4.8%.
Cc1nc(N2CCOCC2)nc(OCCN2CCOCC2)c1[N+](=O)[O-] was read as SARS PLP yeast -4.5%, 2A StopGo -12.5%, MARV entry inh -0.1%, NS1 inh -1.8%, LASV entry inh 1.0%[46.1 µM], Cruzain inh noDet -1.8%, Cruzain Triton -3.1% and RE007 growth inh -7.3%.
Screening O=C1COc2ccc(S(=O)(=O)N3CCCCCC3)cc2N1 returned SARS PLP yeast 7.7%, 2A StopGo -5.6%, NS1 inh 10.2% and RE007 growth inh 10.4%.
`O=C(OCCOc1cccc(Cl)c1)c1cc(S(=O)(=O)N2CCCCC2)ccc1N1CCOCC1` gave SARS PLP yeast -0.2%, 2A StopGo inconclusive, MARV entry inh inconclusive, LASV entry inh inconclusive and RE007 growth inh -7.8%.
`CCN(CC)c1ccc(C(=O)NNC(=O)c2cccn2C)cc1` gave SARS PLP yeast 3.6%, 2A StopGo 13.3%, MARV entry inh inconclusive, LASV entry inh -23.6% and RE007 growth inh 16.0%.
CCCCN(C)Cc1c(C)[nH]c2c(Cl)cccc2c1=O was read as SARS PLP yeast 9.1%, MARV entry inh -1.6%, NS1 inh 1.5%, LASV entry inh -15.3%, Cruzain inh noDet -5.1%, Cruzain Triton 0.0% and RE007 growth inh 6.5%.
COC(OC)c1nc(SCC(=O)Nc2cccc(Cl)c2)ncc1C(=O)O was read as SARS PLP yeast -3.1%, 2A StopGo -15.0%, NS1 inh 5.5% and RE007 growth inh -2.6%.
`CSCCC(NC(=O)OCc1ccccc1)C(=O)O` (stereo unspecified) gave SARS PLP yeast 7.3%, 2A StopGo 2.5%, MARV entry inh 12.9%, NS1 inh 3.4%, LASV entry inh 1.4%, Cruzain inh noDet 6.6%, Cruzain Triton -1.5% and RE007 growth inh -0.1%.
CC(C)c1ccc(N(C(=O)c2ccc3c(c2)OCO3)C2C=CS(=O)(=O)C2)cc1 (stereo unspecified) was read as SARS PLP yeast -1.1%, 2A StopGo -8.2%, MARV entry inh -4.5%[46.1 µM], NS1 inh -11.7%, LASV entry inh -18.1%[46.1 µM] and RE007 growth inh -7.7%.
For Cc1ccc(NC(=O)C2Oc3ccccc3OC2C)cc1 (stereo unspecified) the results were SARS PLP yeast 0.1%, 2A StopGo 34.4%[activator], NS1 inh -17.9% and RE007 growth inh inconclusive.
Screening O=C(Cn1ccc2cc(S(=O)(=O)N3CCCCC3)ccc21)NCc1cccc(Cl)c1 returned 2A StopGo 2.7%, LASV entry inh inconclusive, Cruzain inh noDet -25.9% and Cruzain Triton -5.7%.
Screening COC(=O)C1C(O)=C(C(C)=N)C(=O)CC1(C)C (stereo unspecified) returned SARS PLP yeast 6.1%, 2A StopGo -7.5%, MARV entry inh 15.0%[46.1 µM], NS1 inh -4.2%, LASV entry inh -1.1%, Cruzain inh noDet -3.0%, Cruzain Triton 1.7% and RE007 growth inh 0.3%.
O=C(COC(=O)/C=C/c1ccccc1)Nc1cccnc1Cl was read as SARS PLP yeast -4.3%, 2A StopGo -4.5%, MARV entry inh 4.4%[46.1 µM], LASV entry inh -1.0% and RE007 growth inh -11.0%.
`O=C(Cc1ccc(Cl)cc1)N1CCN(C(=O)c2ccco2)CC1` gave SARS PLP yeast -0.6%, 2A StopGo 15.2%, MARV entry inh 13.5%[46.1 µM], NS1 inh -5.9%, LASV entry inh -12.7%, Cruzain inh noDet -2.9%, Cruzain Triton 3.9% and RE007 growth inh -7.5%.
`O=C(Nc1nc(-c2ccc(S(=O)(=O)N3CCOCC3)cc2)cs1)c1ccccc1` gave SARS PLP yeast 4.5%, 2A StopGo 14.1µM*, MARV entry inh 3.98µM*, NS1 inh 10.4%, LASV entry inh inconclusive, Cruzain inh noDet -14.5%, Cruzain Triton -6.3% and RE007 growth inh 1.6%&-11.5%.
Screening CCOC(=O)N1CCN(C(=O)c2ccc(N(C)S(=O)(=O)c3ccc(C)cc3)cc2)CC1 returned SARS PLP yeast 4.0%, 2A StopGo -21.1%, NS1 inh -20.3% and RE007 growth inh 6.5%.
`CCOc1ccc(C(=O)c2cn(CC(=O)Nc3ccc(F)c(F)c3)c3cc4c(cc3c2=O)OCCO4)cc1` gave 2A StopGo -7.0%, MARV entry inh inconclusive, LASV entry inh -14.6%[46.1 µM], Cruzain inh noDet 8.2% and Cruzain Triton -6.2%.
Screening CCOc1ncccc1C(=O)Nc1cc(S(=O)(=O)N2CCCCC2)ccc1Cl returned SARS PLP yeast 2.3%, 2A StopGo -22.7%, MARV entry inh inconclusive, LASV entry inh inconclusive and RE007 growth inh -12.6%.
For COc1cccc(NC(=O)COC(=O)C2=NN(c3ccccc3)C(=O)CC2)c1 the results were SARS PLP yeast 21.6%, 2A StopGo 9.3%, MARV entry inh 12.4%, LASV entry inh -13.1% and RE007 growth inh 12.9%.
Screening O=C(NCCN1CCOCC1)c1csc2c1CCCCC2 returned SARS PLP yeast -1.0%, MARV entry inh 14.4%, NS1 inh -6.8%, LASV entry inh -5.8%, Cruzain inh noDet -2.4%, Cruzain Triton -4.0% and RE007 growth inh 11.8%.
For CC(=O)Nc1ccc(NC(=O)CSc2nnc(NC(=O)C3CC(=O)N(c4ccc(F)cc4)C3)s2)cc1 (stereo unspecified) the results were SARS PLP yeast -8.2%, 2A StopGo -1.7%, MARV entry inh 28.7%, NS1 inh -1.1%, LASV entry inh 2.5% and RE007 growth inh -18.6%.
COc1ccc(CCNC(=O)CCS(=O)(=O)c2ccc3c(c2)CCN3C(C)=O)cc1OC was read as SARS PLP yeast 0.2%, 2A StopGo 0.0%, MARV entry inh -13.7%, NS1 inh -0.3%, LASV entry inh -5.3%, Cruzain inh noDet 0.6%, Cruzain Triton 0.0% and RE007 growth inh 1.3%.
Cn1c(N)c(C(=O)COC(=O)C2CCCC2)c(=O)n(C)c1=O was read as SARS PLP yeast -2.2%, 2A StopGo 8.9%, MARV entry inh 3.4%[46.1 µM], LASV entry inh -4.0% and RE007 growth inh 8.7%.
For Cc1cccc(N(C(=O)c2csnn2)C(C(=O)NC(C)(C)C)c2ccncc2)c1 (stereo unspecified) the results were SARS PLP yeast -1.9%, MARV entry inh -2.8%, NS1 inh -5.5%, LASV entry inh 22.3%, Cruzain inh noDet -5.8%, Cruzain Triton 4.3% and RE007 growth inh 9.2%.
Screening COc1cc(Cl)c(C)cc1NC(=O)c1c(C)oc2nc(C)nc(N3CCCC3)c12 returned 2A StopGo -23.1%, LASV entry inh -11.3%[46.1 µM], Cruzain inh noDet -13.2% and Cruzain Triton -3.2%.
Screening COc1ccc(CCC(=O)Nc2nc3c(s2)CN(C)CC3)cc1OC returned SARS PLP yeast 6.4%, 2A StopGo -17.9%, MARV entry inh -8.1%, NS1 inh 0.7%, LASV entry inh -3.6%, Cruzain inh noDet -4.2%, Cruzain Triton -1.0% and RE007 growth inh -10.0%.
